Screening data deposited in PubChem BioAssay by several laboratories.
PABP FP inh – PABP-poly(A) binding inhibition; P11940; PABP-poly(A) RNA binding, fluorescence polarization; inhibition, % at 35 µM; hit rate 1% among 290,000; AID 2014;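 active = 50% or more with normal probe brightness, or confirmed in later tests; inconclusive = above 50% with abnormal brightness, or retests that disagree; inactive = below 50% or failed in later tests; about a fifth of its hits are not listed in these tables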;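 note: calls also rest on retests at 20 µM and on dose response follow-up; controls were probe without protein and protein plus probe with vehicle; some compounds called inactive have numbers as strong as hits; many hits fall short of the cut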
Target sequence (P11940 whole entry, looked up): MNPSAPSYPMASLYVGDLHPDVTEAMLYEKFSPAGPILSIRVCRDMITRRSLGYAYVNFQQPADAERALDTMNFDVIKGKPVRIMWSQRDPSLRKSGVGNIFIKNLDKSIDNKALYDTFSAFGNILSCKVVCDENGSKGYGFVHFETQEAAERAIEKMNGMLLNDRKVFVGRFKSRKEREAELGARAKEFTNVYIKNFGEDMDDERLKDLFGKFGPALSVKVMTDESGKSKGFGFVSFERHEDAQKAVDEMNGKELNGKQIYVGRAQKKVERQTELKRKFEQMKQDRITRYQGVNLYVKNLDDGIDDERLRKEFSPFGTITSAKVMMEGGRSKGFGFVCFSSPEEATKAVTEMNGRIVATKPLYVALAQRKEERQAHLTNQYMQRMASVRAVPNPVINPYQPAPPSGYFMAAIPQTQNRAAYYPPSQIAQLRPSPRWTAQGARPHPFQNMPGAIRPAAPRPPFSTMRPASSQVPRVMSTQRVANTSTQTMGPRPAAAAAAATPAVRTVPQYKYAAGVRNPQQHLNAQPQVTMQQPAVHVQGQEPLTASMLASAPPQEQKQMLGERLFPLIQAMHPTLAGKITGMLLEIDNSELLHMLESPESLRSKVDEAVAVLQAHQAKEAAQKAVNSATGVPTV
Yeast UUG start – yeast start codon fidelity modulation | S. cerevisiae UUG-firefly luciferase reporter, luminescence/redox ratio | activity score, % at 18.7 µM | hit rate 0.13% among 350,000;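 active = replicate mean at a twofold rise or more, about +100% in these data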;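 note: firefly luciferase made from a UUG start codon reports start codon fidelity; reporter light over untreated wells divided by growth signal over untreated wells; some hits fall short of that in this replicate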
HIV Env fusion – inhibitors of HIV Env-mediated cell fusion; HeLa-JRFL Env/CEM21 cell fusion, luciferase; inhibition, % at 12.3 µM; hit rate 1.1% among 360,000;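 active = mean replicate inhibition score of at least 50 and every replicate individually at or above 50; inconclusive = only one of the two criteria met; inactive = mean below 50 and not all replicates reaching 50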;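 note: 0% = plate neutral controls and 100% = maraviroc near 300 nM; one replicate is shown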
eIF4H inh – inhibitors of RNA binding by human eIF4H | Q15056 | eIF4H fluorescence polarization binding assay | inhibition, % at 35 µM | hit rate 0.94% among 290,000 | AID 2012;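 active = 50% or more with normal probe brightness, or confirmed in later tests; inconclusive = above 50% with abnormal brightness, or retests that disagree; inactive = below 50% or failed in later tests; about a fifth of its hits are not listed in these tables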;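 note: calls also rest on retests at 20 µM and on dose response follow-up; 0% = protein and probe with vehicle and 100% = probe without protein; strong numbers were not always called active; many hits fall short of the cut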
MT1-MMP act inh – blocks activation of human MT1-MMP; P50281; HT1080 RFP-PRO-GFP cells, GFP/RFP ratio fluorescence, overnight; percent of plate control window, DMSO zero; GFP/RFP ratio change, % at 20 µM; hit rate 0.061% among 360,000; AID 651647;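 active = GFP/RFP ratio change of at least 30% with cell ATP level not reduced by more than half and red fluorescence within 50% of control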; note: strong numbers were not always called active
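system = RFP-PRO-GFP reporter HT1080 cells | dosing = 20 µM single dose, 1% DMSO | timing = overnight cell settling, then overnight compound exposure, 37 °C, 5% CO2 | read-out basis = GFP/RFP fluorescence ratio | controls = DMSO and RFP-L50D-GFP cell wells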
CSC inhib – cancer stem cell inhibition. cancer stem cell-like cells viability, luminescence. hit rate 1.1% among 300,000. AID 2717. inhibition, % at 7.5 µM;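 active = mean at 75% or more and at least half the replicates too; inconclusive = mean and replicates disagree; tested in HMLE shEcad cells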;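 note: 0% = median of negative and 100% = median of positive control wells; the first replicate is given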
Rce1 inhib – inhibitors of yeast Ras-converting enzyme. yeast membranes, quenched prenylated peptide cleavage fluorescence. calls only. hit rate 0.27% among 290,000;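 active = fall in fluorescence gain of 50% or more versus controls, with final raw signal at or below 3038400; inconclusive = same 50% fall but final raw signal above 3038400; inactive = fall in fluorescence gain under 50%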;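 note: plate controls were neutral control wells for no effect and wells lacking membranes for full effect; tested at 10 µM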
Target sequence (Q03530 whole entry, looked up): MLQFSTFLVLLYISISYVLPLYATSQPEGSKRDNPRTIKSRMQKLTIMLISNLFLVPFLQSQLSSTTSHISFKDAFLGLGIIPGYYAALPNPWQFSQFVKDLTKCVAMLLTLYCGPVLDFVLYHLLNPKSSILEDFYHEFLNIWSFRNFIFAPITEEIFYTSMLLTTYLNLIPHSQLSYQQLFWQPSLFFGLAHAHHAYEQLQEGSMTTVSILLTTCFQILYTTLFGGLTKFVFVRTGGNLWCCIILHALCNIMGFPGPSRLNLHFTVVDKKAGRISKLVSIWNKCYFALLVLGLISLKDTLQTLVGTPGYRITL
MT1-MMP act inh RFP – second read-out of MT1-MMP act inh, no call of its own (marks repeat the call); RFP signal change, %; measured here: RFP expression control read;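 0 = vehicle wells; hits needed this value within 50% of zero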
Numbers without * were called inactive; i = inactive; ? = inconclusive; · = no result given.

SMILES	PABP FP inh	Yeast UUG start	HIV Env fusion	eIF4H inh	MT1-MMP act inh	MT1-MMP act inh RFP	CSC inhib	Rce1 inhib
COc1ccccc1Nc1nc(-c2sc(N)nc2C)cs1	25	-8	-8	20	-10	4	-10	·
O=S(=O)(Nc1cccc(-c2cn3cccnc3n2)c1)c1ccc(F)cc1	-7	-6	·	-1	6	4	-4	i
COc1ccccc1C(=O)Nc1ccc(-c2nnn(CC(=O)N3CCN(C(=O)c4ccco4)CC3)n2)cc1	-3	·	4	1	4	1	1	i
COc1ccc(CCNC(=O)CN(c2ccc(OC)c(OC)c2)S(C)(=O)=O)cc1OC	1	-11	-72	-6	5	2	·	i
CSc1ccc(NC(=O)C(C)N2CCN(C)CC2)cc1 (stereo unspecified)	9	-6	-5	2	4	4	1	i
Cc1nc2ccccc2n1/N=C/c1ccc([N+](=O)[O-])o1	·	·	·	·	-12	-5	?	i
CCC(C)(C)NC(=O)CN(Cc1cccs1)C(=O)CCC(=O)Nc1nccs1	0	-2	·	-10	-2	2	-22	i
NC(=O)CC(NC(=O)c1cccc(Br)c1)c1ccc(N2CCC(N3CCCC3)CC2)c([N+](=O)[O-])c1 (stereo unspecified)	-1	-10	13	-6	1	0	-5	i
CCN1C(=O)[C@H]2[C@@H](c3ccc(-c4ccc(Cl)c(Cl)c4)cc3)N3CCCC[C@@]3(C(=O)OC)[C@H]2C1=O	·	-10	10	·	2	-8	43	i
CC(C)C1NCCc2c1sc1ccccc21 (stereo unspecified)	·	-5	6	·	2	5	-3	i
COc1ccc(-c2cn(-c3ccccc3)c(=S)[nH]2)cc1OC	7	-14	62*	-13	11	-27	-7	i
Cc1ccc(S(=O)(=O)NNC(=O)c2sc3nc(C)cc(C)c3c2-n2cccc2)cc1	-6	-5	-55	-12	-4	-2	14	i
O=C(CC[C@H]1O[C@@H](n2cnc3c(NC(=O)c4ccccc4)ncnc32)[C@H](O)[C@@H]1O)NCc1ccco1	·	-4	17	·	3	8	·	·
Cc1ccc(NC(=O)COC(=O)c2cccnc2)c(C)c1	6	·	19	6	2	3	-17	i
Cc1cc(C)c(-c2csc(NC(=O)C3=COCCO3)n2)cc1C	·	-14	-25	·	-7	-12	3	i
O=C(CSCc1ccc(Cl)cc1)N/N=C/c1c(Cl)cccc1Cl	-4	-2	·	6	-2	-7	17	i
Cn1c(=O)c2c(-c3ccccc3)n(-c3ccccc3N)cc2n(C)c1=O	·	-8	-61	·	-7	1	·	·
Oc1ccc(-c2nccc(-c3cccs3)n2)cc1	3	-26	-292	3	4	4	14	i
CCC(O)(c1ccccc1)C(CN1CCOCC1)c1ccccc1 (stereo unspecified)	-14	-10	25	-10	-2	5	-3	i
COc1ccccc1NS(=O)(=O)c1cc(NC(=O)c2ccccc2[N+](=O)[O-])ccc1N1CCOCC1	·	·	-5	·	0	-1	-1	·
COc1ccc(N(CC(=O)NCc2ccc(F)cc2)S(=O)(=O)c2c(C)n[nH]c2C)cc1	7	-17	12	1	-1	4	-1	i
COc1ccc(C(=O)c2c[nH]c(C(=O)NCCCn3ccnc3)c2)cc1	0	-14	-4	-1	2	3	10	i
COc1cccc2c1Oc1cc([N+](=O)[O-])cc(N(C)C(C)=O)c1C=C2	0	0	11	2	3	-2	-12	i
CCCCOC(=O)c1ccc(NC(=O)CSc2nncn2C)cc1	-4	-8	·	0	-2	-2	38	i
CCOC(=O)c1sc(=S)n(CC)c1NC(=O)CC	1	-19	-24	-2	0	2	1	i
CC1=C(C#N)C(c2ccoc2)C(C(=O)OCc2ccccc2)=C(N)S1 (stereo unspecified)	9	-1	·	9	-3	-1	-9	i
O=c1[nH]c2ccc(NC(=S)Nc3ccccc3)cc2[nH]1	10	·	-4	-1	4	7	-10	i
O=C(Nc1ccccc1C(=O)O)c1cc(S(=O)(=O)N2CCCCC2)c(Cl)cc1Cl	6	6	-5	-2	-3	-3	-7	i
CC(Sc1nnc(-c2ccc(OC(F)F)cc2)o1)C(=O)NCC1CCCO1 (stereo unspecified)	-1	-14	-12	-10	0	0	-7	i
CC(C)(C)OC(=O)NCCCC[C@H](NC(=O)c1[nH]cnc1C(=O)N[C@@H](Cc1ccccc1)C(=O)OC(C)(C)C)C(=O)OC(C)(C)C	0	-6	47	11	-30	-32	30	i
O=C(Cn1cc2c(n1)CCCCC2)NCc1cccs1	-7	-7	13	1	1	2	19	i
CCOc1ccc(S(=O)(=O)NCCC(=O)N(C)Cc2ccc(C)o2)cc1	·	-13	·	·	2	3	·	i
CCN(C(=O)CCNC(=O)Cn1cnc2ccccc2c1=O)c1ccccc1F	1	-11	-1	-6	0	2	6	i
CCCc1ccc(OCc2ccc(C(=O)NCc3cccnc3)o2)c(OC)c1	0	·	3	-3	-5	-9	-5	i
O=C(COC(=O)CCc1nc2ccccc2c(=O)[nH]1)NC(=O)NC1CCCC1	-11	-7	1	7	5	5	-3	i
COC(=O)CCn1nnc(-c2ccc(C(C)C)cc2)n1	8	-5	66*	-1	2	1	-15	i
CCCCN(C(=O)C1CCCC1)C1CCS(=O)(=O)C1 (stereo unspecified)	·	·	-13	·	12	-4	·	i
COc1ccc(OC)c(CCNC(=O)c2ccc3c(c2)N(Cc2ccc(F)cc2)CCS3)c1	5	-5	·	0	-5	-5	41	i
COc1cccc(-c2noc(CCC(=O)NC3CCCCC3)n2)c1	-4	-7	·	-2	-7	-5	8	i
CCOC(=O)c1sc(C)c(C(=O)NCCCN2CCOCC2)c1N	4	0	·	-2	-3	7	11	i
CCOC(=O)CNC(=O)Cn1cnc2c(nnn2-c2ccc(F)cc2)c1=O	-14	-4	·	4	-1	-3	-4	i
Cc1cccc(C)c1NC1=NC(=S)N(c2ccc(C(=O)O)cc2)C12CCCCC2	-15	-10	-5	-15	-1	-2	22	i
Cc1nn(Cc2ccccc2)c(Cl)c1C(=O)OC(C)C#N (stereo unspecified)	-4	-4	10	-2	-1	-5	-2	i
CCNC(=O)N1CCC(c2nc3ccccc3s2)CC1	-3	-13	7	-6	8	-4	4	i
O=C(NC(=S)NCCc1ccccc1)c1ccccc1F	-11	-14	-14	-5	4	8	2	i
CC(=O)c1cccc(NC(=O)c2ccc([N+](=O)[O-])o2)c1	·	17	-5	·	3	-2	28	i
COc1cc(NC(=O)c2cccs2)ccc1NC(=O)c1ccccc1Cl	-9	-12	0	8	1	-1	12	i
CN(c1ccc(C(=O)N2CCCCC2)cc1)S(=O)(=O)c1cccs1	-11	-1	0	0	-2	-12	-2	i
O=C(O)/C=C/C(=O)Nc1ccc(Cl)c(C(=O)O)c1	13	·	-2	7	-4	3	-12	i
CSc1nnc2c3cc(F)ccc3n(Cc3ccccc3)c2n1	1	-19	-74	-1	0	-7	·	i
CC(=O)c1sc(NC(=O)CCN2C(=O)c3ccccc3C2=O)nc1C	4	2	3	-4	-4	-1	-1	i
COc1ccccc1NC(=O)N1CCN(c2ccccn2)CC1	-6	-7	0	-9	-2	6	-11	i
O=C(O)C1CCCN(S(=O)(=O)c2ccccc2)C1 (stereo unspecified)	6	·	1	-9	0	0	14	i
CCOc1cc(-c2n[nH]c(=S)n2Cc2ccccc2)ccc1OC(F)F	·	-3	·	·	1	-7	-14	·
COc1ccc(C2CC3CC(c4ccccc4)N2O3)cc1 (stereo unspecified)	-2	-16	·	7	1	3	-10	i
COc1cccc(C(=O)NC(C)C(c2cccs2)N2CCOCC2)c1 (stereo unspecified)	9	9	16	-7	1	2	16	i

Further records follow.
SMILES	PABP FP inh	Yeast UUG start	HIV Env fusion	eIF4H inh	MT1-MMP act inh	MT1-MMP act inh RFP	CSC inhib	Rce1 inhib
CN(C(=O)c1ccc(S(=O)(=O)N(C)C)cc1)c1ccc2ccccc2c1	6	8	3	3	-4	-2	-9	i
Cc1cc(C)nc(SCC(=O)NC2CCCCC2C)n1 (stereo unspecified)	·	·	4	·	·	·	-11	i
CCOC(=O)c1c(NC(=O)CNCCO)sc(C)c1C	9	-13	·	-3	-3	-1	-3	i
O=C1CN(C(=O)COC(=O)c2cccnc2Cl)c2ccccc2N1	-2	3	16	4	0	2	16	i
O=c1c2ccccc2nc(SCc2cc(F)cc3c2OCOC3)n1Cc1ccco1	-4	·	3	-6	4	2	15	i
CCOC(=O)N1CCN(S(=O)(=O)c2ccc3c(c2)CC(C)N3C(=O)C2CC2)CC1 (stereo unspecified)	-5	2	0	-1	4	-4	7	i
O=C(Nc1ccc(S(=O)(=O)N2CCCC2)cc1)c1cc(F)c(F)cc1Cl	-2	-22	14	-1	6	-2	32	i
Clc1ccc(CSc2nnc(NC3=NCCCCC3)s2)cc1	-8	-17	·	2	-4	-22	-4	i
Cc1cc(C(=O)OCC(=O)N2CC(C)OC(C)C2)c2ccccc2n1 (stereo unspecified)	·	-15	6	·	-2	4	-3	i
O=C1CS/C(=C\[N+](=O)[O-])N1c1ccccc1	18	-17	-24	10	-18	6	6	i
CCOC(=O)c1csc(NC(=O)c2ccc3c(c2)OCCO3)n1	-5	-9	·	2	-5	-12	-9	i
CCn1nc(NC(=O)c2ccccn2)c2cc3cccc(C)c3nc21	2	-3	·	-13	1	-2	-8	i
COc1ccc(/C=N/NC(=O)CC(=O)N/N=C/c2ccc(OC)cc2)cc1	-5	-10	-13	-2	0	-2	·	i
CCn1c(SCC(=O)NC2CCCCC2)nc2c(c1=O)SC(C)C2 (stereo unspecified)	-1	·	·	-17	0	1	-8	i
Cc1ccc(NC(=O)CCC(=O)NNC(=S)Nc2ccc(F)cc2F)cc1C	12	-12	1	2	-3	4	4	i
CC(C)NC(=O)CC1C(=O)N(Cc2ccccc2)C(C)c2nc3ccccc3n21 (stereo unspecified)	3	-17	-9	-1	0	-1	-7	i
COc1ccc(Cn2c(/C=C/c3ccccc3)nc3ccccc32)cc1	-10	-21	-301	-6	-7	-7	48	?
O=C(COC(=O)CCc1ccccc1)NCc1ccc2c(c1)OCO2	·	-21	-76	·	-1	4	-1	·
COc1ccc(N(C(C)C(=O)NCc2ccco2)S(C)(=O)=O)cc1 (stereo unspecified)	6	-8	-53	0	2	-6	11	i
C=CCn1c(-c2cccc(OC)c2)nc2nc3ccccc3nc21	18	-10	-26	42	-2	0	-13	i
CC[C@]12c3[nH]c4ccc(Cl)cc4c3CCN1C(=O)[C@@H](CC(=O)NCCN1CCOCC1)C[C@@H]2C(=O)N1CCN(C(=O)c2ccco2)CC1	·	-13	3	·	3	5	·	·
COc1cccc(NC2=NCC(=O)N2Cc2cccs2)c1	10	10	·	-12	-1	-2	3	i
OCCN1CCN(CCO)C1=S	·	-16	7	·	2	3	·	·
CCOc1ccc2nc(NC(=O)C3CCCN(S(=O)(=O)c4cccc5nonc45)C3)sc2c1 (stereo unspecified)	-3	-19	30	-2	-20	-20	0	i
CCOc1ccccc1NC(=O)N1CCCC1C(=O)Nc1nnc(CC)s1 (stereo unspecified)	-3	3	·	-11	5	1	·	i
CCC(=O)N1CCN(c2nc(-c3ccc(Cl)cc3)cs2)CC1	5	-1	11	4	-8	-18	16	i
CCCOc1ccc(CNC(=O)C2CCN(C(=O)N3CCOc4ccccc43)CC2)cc1	-8	-7	7	0	2	-16	0	i
